Assay outcomes from PubChem BioAssay.
SARS PLpro yeast: blocks SARS-CoV papain-like protease in a yeast assay. S. cerevisiae expressing SARS-CoV PLpro, growth rescue; control for the full effect not named in the record. Potency, µM (titrated, usually from 32.9 µM), inactives show top-dose activity, positive = growth rescue. actives 0.19% (n = 330,000); active means well fitted rising curve with a large enough effect; inconclusive means small, poorly fitted or top-dose-only effect; inactive means no such curve, though single readings can be large or run the other way; further: 0% is about no effect; nearly all actives have a fitted effect of over 55% in size; growth read by luminescence after 48 h
NS1 function inh: influenza NS1 inhibition | S. cerevisiae slowed by influenza A NS1, growth recovery by OD600 | Potency, µM (series often up to 46.1 µM), inactives show at the top dose activity, positive = more growth | actives 0.4% (n = 270,000) | AID 2326; active means well fitted rising curve with a large enough effect; inconclusive means small, poorly fitted or top-dose-only effect; inactive means no such curve, though single readings can be large or run the other way; further: nearly all actives have a fitted effect of over 50% in size
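In this qHTS, NS1 from influenza A is expressed in budding yeast, where it slows growth. Cells are switched from glucose to 2% galactose medium (pH 6.0, -URA), treated with compound, and growth recovery is read at OD600.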
Cruzain Triton: cruzain (T. cruzi) inhibition with detergent; P25779; purified cruzain, Z-FR-AMC fluorescence, 0.01% Triton; Potency, µM, without a hit: max response, negative = inhibition, actives largely listed as inhibitors; actives 0.43% (n = 200,000); AID 1478;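 further: plate controls were neutral wells for no effect and buffer without enzyme for full effect; nearly all actives have a fitted effect of over 40% in size; top concentration of the series not given in the record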
Target sequence (P25779 123-467 limits assumed): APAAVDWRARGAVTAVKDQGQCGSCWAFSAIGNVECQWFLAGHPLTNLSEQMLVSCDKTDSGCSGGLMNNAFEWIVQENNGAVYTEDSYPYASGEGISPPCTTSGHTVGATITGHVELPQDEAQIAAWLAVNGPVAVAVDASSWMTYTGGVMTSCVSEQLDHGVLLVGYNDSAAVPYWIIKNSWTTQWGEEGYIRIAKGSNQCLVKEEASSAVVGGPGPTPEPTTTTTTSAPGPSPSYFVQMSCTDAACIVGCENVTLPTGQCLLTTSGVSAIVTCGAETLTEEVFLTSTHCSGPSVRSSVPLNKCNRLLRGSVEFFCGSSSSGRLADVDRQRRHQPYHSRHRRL
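Detergent-containing run (0.01% Triton X-100) in acetate buffer pH 5.5 with 5 mM DTT: enzyme at 1.5 nM final, 15 min compound preincubation at room temperature, then 2 uM Z-FR-AMC substrate. Activity taken as 60 s fluorescence increase at 360/450 nm.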
Lassa entry inh: inhibitors of Lassa virus binding or cell entry. Potency, µM (titrated, usually from 37.9 µM), inactives show top-dose activity change, negative = inhibition, hits mostly inhibitors. actives 1.2% (n = 300,000). Lassa virus pseudotype entry inhibition, cell reporter; control for the full effect not named in the record; active means well fitted inhibition curve with a large enough effect; inconclusive means small, poorly fitted or top-dose-only effect, or effect the other way; inactive means flat fitted curve, though single readings scatter; tested in HEK293 cells; further: on the % scale 0 is the no-effect control and ±100 the full control effect; nearly all actives have a fitted effect of over 50% in size; luciferase read-out
RE007 growth inh: less growth of the S. pombe RE007 Vpr strain; Potency, µM (highest dose often 92.2 µM), inactives show top-dose activity change, negative = less growth; S. pombe RE007 Vpr strain, BacTiter-Glo ATP luminescence, 24 h; control for the full effect not named in the record; AID 651644; actives 0.21% (n = 360,000); active = well fitted falling curve with a large enough effect; inconclusive = small, poorly fitted or top-dose-only effect; inactive = no such curve, though single readings can be large or run the other way;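 further: on the % scale 0 is the no-effect control and ±100 the full control effect; nearly all actives have a fitted effect of over 50% in size; the assay follows cell death caused by Vpr and the record does not say whether a fall means rescue or toxicity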
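Fission yeast strain RE007, carrying one chromosomally integrated HIV-1 vpr copy, was seeded at OD 0.01 in PMG+AL medium with 23 nL pinned compound. After 24 h at 30 °C and 99% humidity, viability was read by BacTiter-Glo luminescence.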
MARV entry inh: inhibitors of Marburg virus binding or cell entry. AID 540276. actives 1.8% (n = 300,000). Potency, µM (series often up to 37.8 µM), for inactives: at the top dose activity change, negative = inhibition, usual class: inhibitors. Marburg virus pseudotyped entry inhibition, cell reporter; control for the full effect not named in the record; about a third of the inactives were read at about 46 µM; active = well fitted inhibition curve with a large enough effect; inconclusive = small, poorly fitted or top-dose-only effect, or effect the other way; inactive = flat fitted curve, though single readings scatter; tested in HEK293 cells; about a fifth of its hits are not listed in these tables; further: on the % scale 0 is the no-effect control and ±100 the full control effect; luciferase read-out
Cruzain noTriton: cruzain (T. cruzi) inhibition without detergent; purified cruzain, Z-FR-AMC fluorescence, no detergent; Potency, µM, for the others: max response, negative = inhibition, actives largely listed as inhibitors; actives 2.3% (n = 200,000); P25779;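 further: plate controls were enzyme without inhibitor for no effect and buffer without enzyme for full effect; nearly all actives have a fitted effect of over 40% in size; top concentration of the series not given in the record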
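Detergent-free condition (0.00005% Triton X-100) in acetate buffer pH 5.5 with DTT. 1.5 nM enzyme and compound were pre-mixed 15 min, then 2 uM Z-FR-AMC substrate added; reaction progress from fluorescence change between first and third reads (60 s).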
2A StopGo: lowers the luciferase signal of an FMDV 2A StopGo reporter. Potency, µM (doses to about 57.9 µM), for inactives: at the top dose signal change, negative = less light. actives 1.2% (n = 410,000). human cells with a luciferase reporter of 2A StopGo recoding; control for the full effect not named in the record. AID 1159524; active = well fitted falling curve with a large enough effect; inconclusive = small, poorly fitted or top-dose-only effect; inactive = no such curve, though single readings can be large or run the other way; tested in HEK293T cells; further: on the % scale 0 is the no-effect control and ±100 the full control effect; nearly all actives have a fitted effect of over 45% in size; luciferase light after 4 h
The depositor's hits bear a star; ? = inconclusive; · = not tested or not shown; & = joins results of further samples; [ ] = another dose, or the depositor's remark. Unless noted, the call rests on the fitted dose curve; in most records, active means well fitted curve in the direction sought with a large enough effect; inconclusive means small, poorly fitted or top-dose-only effect, or another doubt; inactive means no such curve, though single readings can be large; an effect the other way counts as inactive or inconclusive. Potency means the concentration at half of the fitted maximal effect.

SMILES	SARS PLpro yeast	NS1 function inh	Cruzain Triton	Lassa entry inh	RE007 growth inh	MARV entry inh	Cruzain noTriton	2A StopGo
CCCCc1nn2c(=O)cc(COC(=O)c3cccc(NC(=O)COc4ccccc4)c3)nc2s1	·	·	0.6%	17.7%[46.1 µM]	·	·	-1.8%	2.1%
COc1cc(/C=C2/S/C(=N/S(=O)(=O)c3ccccc3)NC2=O)c([N+](=O)[O-])cc1OC	21.2%	1.9%	-11.4%	-2.3%	-4.1%	?	23.8%	-5.2%
Cc1onc(-c2c(F)cccc2Cl)c1C(=O)N1CCc2ccccc21	-1.1%	3.4%	-3.4%	2.1%	11.1%	-14.7%	8.5%	-25.3%
O=c1oc(-c2ccccc2F)nc2c1cnn2-c1ccccc1	0.1%	2.1%	-5.5%	?	4.9%	?	-3.1%	·
Cc1nc2ccn(Cc3cccnc3)c(=O)c2cc1C(=O)N1CCN(c2ccc(F)cc2)CC1	·	·	-8.6%	7.3%[46.1 µM]	·	·	5.2%	-8.8%
COc1ccccc1-c1c(C)nn2c(N3CCCCCC3)cc(C)nc12	-27.7%	-154.5%	-3.1%	?	-10.0%	?	-9.9%	28.2µM*
CCOC(=O)c1ccc(NC(=O)CCC(CC)C(=O)O)cc1 (stereo unspecified)	3.9%	0.4%	2.9%	?	13.2%	3.2%	7.6%	17.6%
COc1ccc([N+](=O)[O-])cc1/C=N/NC(=O)CNC(=O)c1cccc(F)c1	25.2%	-10.0%	-16.1%	?	-3.3%	-1.1%	-27.8%	-16.8%
COc1cc2c(cc1OC)CN(C(=O)CN1C(=O)c3ccc([N+](=O)[O-])cc3C1=O)CC2	0.2%	·	·	2.3%	?	?	·	-11.6%
CCCn1c(O)c(/C=C2\C=NN=C2c2ccccc2)sc1=S	8.9%	0.2%	-7.2%	?	?	?	5.1%	-9.1%
Cc1c(Cl)cccc1-n1ncc(C(=O)Nc2ccc3c(c2)OCCO3)c1C1CCN(C(=O)OC(C)(C)C)CC1	·	·	-9.8%	?	·	·	-8.9%	-4.5%
Cc1cc(=O)n2nc(N3CCC(C(=O)Nc4ccc(C)c(Cl)c4)CC3)sc2n1	·	·	-2.7%	0.9%[46.1 µM]	·	0.7%[46.1 µM]	-3.1%	-16.7%
CN(CC(=O)Nc1c(Cl)cccc1Cl)C(=O)Cc1ccsc1	-18.0%	·	·	-10.1%	1.5%	7.3%	·	-8.5%
C=CCn1c(O)c(C(C)=Nc2ccc(N(CC)CC)cc2)c(=O)[nH]c1=O	2.8%	-6.4%	-1.8%	?	8.3%	-18.0%	0.2%	?
CC(=O)Nc1sc(N/N=C\c2ccccc2)nc1-c1cccs1	-0.6%	-7.1%	-12.3%	20.2%	-23.6%	10.7%	?	40.6%[activator]

An excerpt from above in order of heavy-atom count, descending:
SMILES	SARS PLpro yeast	NS1 function inh	Cruzain Triton	Lassa entry inh	RE007 growth inh	MARV entry inh	Cruzain noTriton	2A StopGo
COc1ccc([N+](=O)[O-])cc1/C=N/NC(=O)CNC(=O)c1cccc(F)c1	25.2%	-10.0%	-16.1%	?	-3.3%	-1.1%	-27.8%	-16.8%
Cc1onc(-c2c(F)cccc2Cl)c1C(=O)N1CCc2ccccc21	-1.1%	3.4%	-3.4%	2.1%	11.1%	-14.7%	8.5%	-25.3%
CC(=O)Nc1sc(N/N=C\c2ccccc2)nc1-c1cccs1	-0.6%	-7.1%	-12.3%	20.2%	-23.6%	10.7%	?	40.6%[activator]

Remaining list, next part
SMILES	SARS PLpro yeast	NS1 function inh	Cruzain Triton	Lassa entry inh	RE007 growth inh	MARV entry inh	Cruzain noTriton	2A StopGo
CC(=O)Nc1ccc(S(=O)(=O)Nc2ccc(S(=O)(=O)N3CCCCCC3)cc2)cc1	-4.7%	-46.7%	-8.2%	-0.5%	5.7%	4.8%	15.6%	45.9%[activator]
CSc1ccccc1C(=O)C1CCCN(S(=O)(=O)c2c(C)noc2C)C1 (stereo unspecified)	-0.5%	-1.6%	·	-15.7%	5.6%	?	·	-25.4%
COc1ccccc1Cc1nc(-c2cccnc2)no1	-0.7%	-3.9%	·	·	-10.0%	·	·	26.1%
COc1ccc(NC(=O)Cn2nnc3sc4c(c3c2=O)CCC(C)C4)c(OC)c1 (stereo unspecified)	·	·	-6.2%	?	·	-20.5%[46.1 µM]	10.4%	-21.0%
Cc1ccc(C)c(S(=O)(=O)N2CCN(C(=O)c3ccncc3)CC2)c1	1.6%	·	·	1.1%	8.1%	-12.9%	·	-13.0%
O=[N+]([O-])c1ccccc1S(=O)(=O)Nc1ncccn1	-1.7%	4.8%	·	·	2.7%	·	·	-20.5%
C=CCn1c(SCC(=O)Nc2cc(NC(C)=O)ccc2OC)nnc1-c1cccnc1	-2.5%	4.2%	-0.7%	-2.8%	-8.5%	10.8%	-1.3%	16.8%
S=C(Nc1ccc(Cl)cc1Cl)NC1CCCCC1	?	3.3%	-2.3%	?	0.2%	-12.0%	-5.4%	21.6%
C=CCN1CCC2(C)c3cc(O)ccc3C[C@H]1[C@H]2C	·	·	0.9%	·	·	·	9.9%	-5.9%
CC(=O)Nc1ccc(S(=O)(=O)N(C)CC(=O)OC2CCCCC2=O)cc1 (stereo unspecified)	2.2%	·	·	-1.2%	-9.5%	-1.8%	·	-11.3%
O=S(=O)(Nc1ccc(-c2cn3c(n2)SCC3)cc1)c1ccccc1F	·	?	·	10.3%[46.1 µM]	1.7%	?	·	-4.5%
Cc1ccn2cc(CCNS(=O)(=O)c3ccc4ccccc4c3)nc2c1	·	·	·	-0.1%	-17.6%	22.5%	·	23.2%
O=C1c2ccccc2C(=O)C12OC(c1ccccc1)C1(C(=O)c3ccccc3C1=O)C2c1ccc([N+](=O)[O-])cc1 (stereo unspecified)	·	·	·	23.0%	-2.5%	-1.2%	·	-10.1%
Cn1nnnc1SCC(=O)NNC(=O)c1ccc(Cl)cc1	0.0%	0.5%	·	1.8%	-6.6%	8.2%[46.1 µM]	·	19.7%
CCOC(=O)N1CCN(C(=O)C2CCN(c3ncnc4c3sc3cccc(F)c34)CC2)CC1	-7.4%	-37.6%	-12.9%	1.0%	-15.2%	-23.9%&-23.9%	?	14.1µM*
Cc1c(O)c(CN2CCCCC2)cc2c1oc(=O)c1ccccc12	-1.8%	-14.7%	0.4%	11.1%	3.4%	7.7%	-1.1%	-22.6%
Cc1cc(=O)[nH]c(SCc2nc3ncccn3c2Br)n1	2.7%	-1.6%	-14.0%	-0.5%	-2.6%	-0.7%	-2.7%	27.5%
N#Cc1c(-c2ccco2)cc(C2CC2)nc1SCC(=O)c1ccccc1	-0.7%	-7.6%	-21.5%	-25.0%	1.7%	?	-6.7%	·
CCN(CC)S(=O)(=O)c1ccc2[nH]cc(C(=O)NCCN3CCCCC3C)c(=O)c2c1 (stereo unspecified)	-1.5%	-4.1%	-1.7%	-11.6%	-8.1%	-3.8%	-8.0%	-3.4%
CC(=O)NCC(=O)OCC(=O)c1ccc2ccccc2c1	-6.0%	-4.3%	3.2%	0.8%	-24.6%	-23.2%	0.2%	-0.8%
CCOC(=O)C1(Cc2cccc(OC)c2)CCCN(CCO)C1 (stereo unspecified)	0.6%	9.3%	·	·	-17.1%	·	·	-20.4%
N#Cc1ccc(COC(=O)c2ccc3c(=O)[nH]c(CN4CCOCC4)nc3c2)cc1	-0.3%	-6.9%	0.0%	-1.9%	-10.0%[3.69 µM]	8.9%	19.8%	-7.3%
COC(=O)c1ccccc1NC(=O)CN1CCC(NC(=O)c2ccccc2C)CC1	-1.8%	-22.4%	3.0%	?	-7.0%	-33.5%	1.4%	?
CC12CN3CCN(CC(C3)/C1=N/NC(N)=O)C2	-0.2%	-3.7%	·	-1.0%[46.1 µM]	5.7%	10.2%[46.1 µM]	·	-1.1%
O=S(=O)(Nc1ccc(S(=O)(=O)N2CCOCC2)cc1)c1ccc(Br)cc1	0.9%	8.9%	·	5.5%	7.7%	-16.6%[46.1 µM]	·	51.2%[activator]
COc1cccc(NC(=O)C2CCN(S(=O)(=O)c3c(C)noc3C)CC2)c1	·	·	-1.9%	22.7%[46.1 µM]	·	-8.6%[46.1 µM]	-15.9%	-15.0%
Cc1onc(-c2ccc(Cl)cc2Cl)c1-c1csc(COc2ccccc2)n1	-1.7%	-0.9%	·	-25.4%[46.1 µM]	0.0%	-9.1%[46.1 µM]	·	-18.9%
O=C(NCCCc1nc2ccccc2n1Cc1ccc(Cl)cc1)c1ccco1	·	·	-9.7%	0.0%[46.1 µM]	·	-10.0%[46.1 µM]	11.3%	?
CC(=O)c1ccsc1-c1c(C)cc2oc(=O)cc(-c3ccccc3)c2c1C	8.2%	·	1.3%	·	10.4%	·	35.5µM*	0.0%
O=C(CN1C(=O)NC2(CCCC2)C1=O)Nc1ccccc1N1CCCCC1	1.7%	·	·	17.1%	-5.5%	6.3%	·	-17.8%
CC1CC(C)CN(C(=S)Nc2ccc3nc4n(c(=O)c3c2)CCCCC4)C1 (stereo unspecified)	-45.7%	-0.2%	-1.4%	-0.5%	12.3%	?	7.4%	8.3%
Cc1cc(=O)oc2cc(OCc3ccc(C(=O)OCC(=O)Nc4ccc(N(C)C)cc4)cc3)ccc12	0.9%	-3.2%	·	3.9%[46.1 µM]	-8.9%	6.8%[46.1 µM]	·	20.3%
Cc1ccc(-c2cc(C(F)(F)F)nn2-c2ccc(S(N)(=O)=O)cc2)cc1	-5.6%	-1.4%	-16.5%&-17.4%	·	1.5%[18.4 µM]	·	?	-21.6%&-13.6%
Cn1c(COc2ccccc2)nc2ccccc21	8.0%	7.7%	·	8.4%[46.1 µM]	-14.2%	?	·	7.9%

Compound profiles (already shown). Order of screens: SARS PLpro yeast | NS1 function inh | Cruzain Triton | Lassa entry inh | RE007 growth inh | MARV entry inh | Cruzain noTriton | 2A StopGo
Cc1ccn2cc(CCNS(=O)(=O)c3ccc4ccccc4c3)nc2c1 as listed: · | · | · | -0.1% | -17.6% | 22.5% | · | 23.2%
N#Cc1c(-c2ccco2)cc(C2CC2)nc1SCC(=O)c1ccccc1 as listed: -0.7% | -7.6% | -21.5% | -25.0% | 1.7% | ? | -6.7% | ·
